From PubChem
Bead autofluor = counter-screen for toxin protease inhibitors: compound fluorescence; 360,000 compounds, 3.1% hits; AID 624483; fluorescence intensity (test concentration not listed); compound autofluorescence counterscreen, microsphere flow cytometry; hits give high values;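 active = at least 3 SD above the mean of all compounds, about 16000 in these data; inconclusive = too few beads counted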;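 also: 100 nL of 1 mM stock went into each well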
BJeLR viability = MLPCN primary cell-based screen for lethality selective to Ras in HRASV12 cells | BJeLR (HRASV12) viability, CellTiter-Glo ATP luminescence, 48 h; reference of the scale not given here | inhibition, % (concentration not given with the values) | 300,000 compounds, 0.17% hits;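 active = replicate mean above 50%; inconclusive = above 50% but judged a plate artefact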;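 also: 50 nL library stock added to about 25 µL; numbers are from one replicate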
PrP 5UTR inh = inhibition of PrP 5' UTR reporter expression; inhibition, % (concentration not given with the values); cell-based PrP 5' UTR mRNA reporter, plate reader; 340,000 compounds, 0.35% hits;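 active = every replicate at 50% or more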;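 also: 0 = median of the neutral control wells; tested in H4 reporter cells; numbers are from one replicate; inactives centre near -14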
Mtb hypoxia rep = PubChem AID 1159583; M. tuberculosis hypoxia-regulated fluorescent reporter, fluorescence; fluorescence inhibition, % (test concentration not listed); 300,000 compounds, 0.1% hits;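 active = 35 to 45% if threefold the growth effect, above 45% if 1.5-fold the growth effect; inactive = the rest, general growth blockers included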;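 also: wells of about 50 µL received 100 nL stock; 0% = vehicle wells and 100% = reference inhibitor wells; whole bacteria with a GFP reporter of the hypoxia response; strong numbers were not always called active; many hits fall short of the cut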
Sa ugtP lethal = growth inhibition of ugtP-null S. aureus, primary screen, RN4220 ugtP deletion, OD600; growth inhibition, % (concentration not given with the values); 16 h; some inactives read as strong as hits; 330,000 compounds, 0.54% hits;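 active = z-score under -3 and OD600 up to 0.15 on both plates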;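 also: plate controls were untreated wells for no effect and antibiotic for full effect; wells of about 80 µL received 100 nL stock; the first replicate is given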
Sa RN4220 lethal = growth inhibition of S. aureus RN4220, primary screen, OD600; 16 h; inhibition, % (no concentration beside the values); 330,000 compounds, 0.33% hits; AID 1259311, 2017;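 active = z-score of -3 or lower and OD600 up to 0.18 on both plates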;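 also: plate controls were untreated cells for no effect and reference antibiotic for full effect; stock transfer was 100 nL into about 80 µL; one replicate is shown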
Mtb hypoxia rep growth = further read-out of Mtb hypoxia rep, marked with its call; growth inhibition, %; measured here: M. tuberculosis growth (absorbance);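 0% = vehicle and 100% = reference antibiotic; read after six days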
An asterisk follows results filed as active; ? = inconclusive; · = not tested or not shown.

SMILES | Bead autofluor | BJeLR viability | PrP 5UTR inh | Mtb hypoxia rep | Mtb hypoxia rep growth | Sa ugtP lethal | Sa RN4220 lethal
COc1ccccc1-c1cc(-c2ccc(C)cc2)nc(SCc2nnc(-c3ccccc3)o2)c1C#N | 10369 | -4 | -42 | 12 | 9 | 7 | 4.6
NC(=O)NN=Cc1cccc(OCc2ccc(F)cc2)c1 | · | · | · | 1 | -6 | 4 | 3.5
CCN(CC)c1ccc(C=C2C(=O)NC(=S)NC2=O)cc1 | 4317 | 51* | -13 | 6 | 0 | 6 | 3.9
COc1ccc(O)c(C=Nn2c(-c3ccco3)csc2=Nc2cccnc2)c1 | · | · | · | 4 | 4 | 3 | 5.2
CC(CCc1ccccn1)C(=O)C(C)CCc1ccccn1 (centres undefined) | 3534 | · | -18 | 13 | 9 | -4 | 4.0
CC(=O)Nc1ccc(CN2CCN(c3cccc(C(F)(F)F)c3)CC2)cc1 | 17158* | -19 | -1 | -4 | 2 | -9 | 8.6
Oc1ccccc1/C=N/N1CCN(c2ccccn2)CC1 | 5255 | -13 | -110 | · | · | · | ·
O=S(=O)(c1ccccc1)N1CCC(n2nnc3cc(F)ccc32)CC1 | 6238 | 2 | -13 | 13 | 3 | 14 | 2.7
Cc1ccc2c(CC(=O)Nc3sccc3C(N)=O)coc2c1 | 2323 | -2 | -37 | · | · | 1 | -2.5
CCCNC(=O)c1ccc(CNc2c(N3CCC(C(=O)OCC)CC3)c(=O)c2=O)cc1 | 5707 | 0 | -6 | · | · | 1 | 2.5
COC(=O)Cc1c(O)ccn(C2CC2)c1=O | 4095 | 0 | -45 | 5 | 11 | 7 | -1.2
O=C(CNC(=O)[C@@H]1Cc2ccccc2CN1)Nc1ccc2c(c1)OCO2 | 4108 | -1 | -24 | 7 | -6 | 15 | -2.0
Cc1nc([N+](=O)[O-])cn1CC(=O)NCCCO | 2546 | 1 | -3 | -4 | 10 | 1 | 4.4
Cc1ccccc1/C(N)=N/OC(=O)c1cccs1 | 2375 | -21 | -56 | 5 | 2 | 22 | 6.1
COc1ccc(-c2cc3ncc(C(C)=O)c(C)n3n2)cc1 | 4158 | -3 | -85 | -2 | -2 | 3 | 2.4
CO/N=C(/CNC(=O)c1ccc(F)cc1)c1ccc(Cl)cc1 | ? | -2 | -13 | · | · | · | ·
CCOc1ccc(C(=O)NC(C(=O)N2CCC2)C(C)C)cc1 (centres undefined) | 6588 | · | -21 | -3 | -4 | 3 | 1.6
Cc1cc(C=C(C#N)C#N)ccc1N1CCCC1 | 3451 | 1 | -22 | -13 | 9 | 3 | 3.6
CC1(C)CC(=O)/C(=N/Nc2ccc(Cl)cc2)CO1 | 4182 | 9 | -145 | · | · | · | ·
CS(=O)(=O)Nc1ccc(C2=NN(C(=O)c3ccccc3)C(c3cccs3)C2)cc1 (centres undefined) | 2803 | -6 | -2 | 5 | -2 | -2 | 3.1
O=C(/C=C/c1cccc2ccccc12)c1ccncc1 | 2658 | 71* | -14 | 22 | 11 | -3 | 12
COCCNC(=O)c1ccc2c(c1)ncn2-c1cccc(C)c1 | 3292 | -5 | -7 | 6 | 2 | -4 | -0.6
CCOc1ccc(S(=O)(=O)/N=C(/c2ccccc2)N(C)C)cc1 | 4256 | -9 | -14 | · | · | · | ·
CCOc1ccc(NC(=O)CN2CCN(CC(=O)Nc3ccccc3OC)CC2)cc1 | 3574 | -4 | · | -15 | 10 | -4 | 1.7
O=C(CCCl)N1CCN(c2nc(-c3ccccc3)cs2)CC1 | 3042 | 3 | -12 | 11 | 3 | 28 | -1.3

6 entries from above, reformatted:
smiles,Bead autofluor,BJeLR viability,PrP 5UTR inh,Mtb hypoxia rep,Mtb hypoxia rep growth,Sa ugtP lethal,Sa RN4220 lethal
CC(=O)Nc1ccc(CN2CCN(c3cccc(C(F)(F)F)c3)CC2)cc1,17158*,-19,-1,-4,2,-9,8.6
Oc1ccccc1/C=N/N1CCN(c2ccccn2)CC1,5255,-13,-110,·,·,·,·
O=S(=O)(c1ccccc1)N1CCC(n2nnc3cc(F)ccc32)CC1,6238,2,-13,13,3,14,2.7
Cc1ccc2c(CC(=O)Nc3sccc3C(N)=O)coc2c1,2323,-2,-37,·,·,1,-2.5
CCCNC(=O)c1ccc(CNc2c(N3CCC(C(=O)OCC)CC3)c(=O)c2=O)cc1,5707,0,-6,·,·,1,2.5
COC(=O)Cc1c(O)ccn(C2CC2)c1=O,4095,0,-45,5,11,7,-1.2

Continued:
SMILES | Bead autofluor | BJeLR viability | PrP 5UTR inh | Mtb hypoxia rep | Mtb hypoxia rep growth | Sa ugtP lethal | Sa RN4220 lethal
COc1cc(C2c3c(-c4ccccc4O)n[nH]c3C(=O)N2Cc2ccco2)cc(OC)c1OC (centres undefined) | 3799 | -2 | -15 | 2 | -5 | -3 | 2.9
CCCn1c(N)c(C(=O)CSc2nnc(-c3cccs3)n2C2CC2)c(=O)[nH]c1=O | 3502 | · | -21 | 5 | 5 | 1 | 0.0
O=C(Nc1ccc(Cl)cc1F)C1CCN(S(=O)(=O)c2cccnc2)CC1 | 2969 | -8 | -15 | · | · | 6 | -0.7
Cc1ccccc1NC(=O)c1ccc2nc(N3CCOCC3)sc2c1 | 5742 | 3 | -28 | 2 | 6 | 10 | 6.7
COCCNC(=O)c1nn2cccnc2c1Cl | 19754* | -13 | -17 | 6 | 9 | 3 | 1.8
Cc1cc(NC(=O)CSc2nnc(-c3ccncc3)n2-c2ccc(F)cc2)no1 | 3753 | 11 | -24 | -3 | 0 | 2 | 4.1
CCOc1ccc(NC(=O)CN(c2cccc(C(F)(F)F)c2)S(C)(=O)=O)cc1 | ? | -1 | -22 | 9 | 16 | 9 | 7.1
CCOc1ccc(S(=O)(=O)Nc2ccccc2C(=O)N/N=C/c2c(OC)ccc3ccccc23)cc1 | 1928 | 8 | -21 | · | · | · | ·
CC(=O)c1ccc(OCc2cc(C(=O)N3CCN(C4CCCC4)C(=O)C3)no2)cc1 | 6072 | -4 | -49 | 1 | 7 | 2 | 2.1
CCCC(C(=O)NNC(=O)c1ccncc1)c1ccccc1 (centres undefined) | 2968 | · | -1 | 7 | 1 | 5 | 0.4
O=C(Nc1ccccc1)C1=C[C@H](C2CC2)C[C@H](OCCCCO)O1 | 2948 | -6 | -33 | 3 | 2 | -3 | -5.7
Cc1c(CCC(=O)NCC(=O)NCC(=O)O)c(=O)oc2cc3oc4c(c3cc12)CCCC4 | 3640 | 0 | -3 | -10 | 9 | 2 | -1.3
N#CC1=C(SCC(=O)Nc2cccc3cccnc23)NC(=O)C(C#N)C12CCCCC2 (centres undefined) | 10141 | 5 | -33 | 5 | 6 | 1 | 23
O=C(Nc1ncn[nH]1)c1ccc(Cl)c(S(=O)(=O)N2CCCCCC2)c1 | 16856* | -13 | 0 | -14 | -14 | 0 | -0.5
C#CCOCCOCCOCCNc1nc(N2CCN(C(=O)CCCCCCCCCCNC(=O)Cn3cc(CCCCCN)nn3)CC2)nc(N2CCN(C(=O)CCCCCCCCCCNC(=O)C(CO)n3cc(CCCCCN)nn3)CC2)n1 (centres undefined) | · | · | · | 10 | 18 | 5 | 0.0
CC(=O)Nc1nnc(SCC(=O)Nc2nc(C)cs2)s1 | 6021 | -2 | -14 | 14 | 9 | 8 | -3.3
COc1ccc(NC(=O)c2nc[nH]c2C(=O)NCC(=O)OC(C)(C)C)cc1 | 3937 | -13 | -2 | -2 | 11 | -11 | -2.0
CCOC(=O)C1CCCN(C(=O)c2cc3ccc(OC)cc3[nH]2)C1 (centres undefined) | 3710 | 1 | -8 | 7 | -3 | -1 | 0.7
O=C(NCc1ccccn1)C1CCC(=O)N1C1CCCCC1 (centres undefined) | 4369 | 1 | -4 | 4 | 0 | 0 | 2.5
O=C(CN1C(=O)CCSc2ccc(S(=O)(=O)N3CCOCC3)cc21)Nc1cccc(F)c1 | 6375 | 5 | 4 | 0 | 1 | 6 | 2.8
Cc1ccc(C(C(=O)NC2CCCCC2)N(Cc2cccnc2)C(=O)C2COc3ccccc3O2)o1 (centres undefined) | 8814 | 0 | -11 | -5 | -6 | 3 | 0.7
COC(=O)C1=C(N)Oc2cc(C)[nH]c(=O)c2C1c1cc(OC)c(OC)c(OC)c1 (centres undefined) | 2691 | 0 | -10 | · | · | 5 | -3.6
COCCN1CCn2c(nc3cc(NC(=O)NC4CCCCC4)ccc32)C1 | 4486 | · | -8 | 10 | 19 | 5 | 3.5
CCn1c(/C=N/c2nc3ccccc3n2C)nc2ccccc21 | 8030 | -1 | -11 | · | · | · | ·
Cc1nn(C(C)C(=O)NC2CC2)c(=O)c2nn(-c3ccccc3)c(C)c12 (centres undefined) | 4433 | -2 | -1 | 5 | 1 | 4 | 3.2
Going on with the list:
SMILES | Bead autofluor | BJeLR viability | PrP 5UTR inh | Mtb hypoxia rep | Mtb hypoxia rep growth | Sa ugtP lethal | Sa RN4220 lethal
CN(c1ccccc1)S(=O)(=O)c1cccc(NC(=O)c2ccc(=O)[nH]n2)c1 | 3837 | · | -8 | 10 | 13 | -9 | 8.1
CN(C)S(=O)(=O)c1cccc(NC(=O)c2cc(-c3cccs3)nn2-c2cccc(Cl)c2)c1 | 2513 | -3 | -21 | 0 | -9 | 8 | 6.6
CCN(C1CCS(=O)(=O)C1)S(=O)(=O)c1cccs1 (centres undefined) | 5837 | -2 | -10 | -2 | -4 | 6 | 2.5
CCN(CC)CCN(C(=O)c1ccc2c(c1)OCCO2)c1nc2c(Cl)cccc2s1 | 5391 | 8 | -26 | 7 | 11 | -1 | -7.3
O=C1c2cc(CO)cc(O)c2C(=O)c2c(O[C@@H]3OC(CO)[C@@H](O)[C@@H](O)[C@@H]3O)cccc21 (some centres undefined) | 4061 | -4 | -4 | · | · | -6 | 4.1
CCN(C(=O)c1ccc(S(=O)(=O)N2CCCC2)cc1)C1CCS(=O)(=O)C1 (centres undefined) | 5991 | -2 | -16 | 3 | -2 | 2 | 5.1
C[C@]1(C(=O)NCc2cc(F)cc(C(F)(F)F)c2)C=CC(Cc2ccccc2)N1C(=O)c1ccccc1 (some centres undefined) | · | · | · | 12 | 16 | 13 | 2.0
Cc1cc(C(=O)NC2CCCN(Cc3ccccc3F)C2)n[nH]1 (centres undefined) | 6764 | -7 | -11 | 9 | -6 | 6 | 4.0
O=C(CSC1=NS(=O)(=O)c2ccccc2N1)NCCc1ccccc1 | 7094 | -5 | -21 | -1 | 2 | 4 | 2.6
Cc1cccc(C(=O)Nc2c3c(nn2C(C)(C)C)CS(=O)(=O)C3)c1 | 4856 | 2 | 4 | 7 | 5 | 3 | 1.5
Cc1ccc(S(=O)(=O)N2CCC(=O)N(C(COCc3ccc(Cl)cc3Cl)Cc3ccccc3)CC2)cc1 (centres undefined) | 3985 | -4 | -31 | 19 | 8 | 9 | -3.1
O=C(Cn1nnc2ccccc21)OCc1ccccc1 | 3969 | 4 | -18 | 18 | 5 | 9 | 8.1
CCOC(=O)CN1CC23C=CC(O2)C(C(=O)Nc2ccc(OCC)cc2)C3C1=O (centres undefined) | 4245 | -11 | -11 | 0 | 5 | 2 | 1.4
CC(/C=C/c1ccccc1)=N\NC(=O)c1cc(C)nc2ccccc12 | 4206 | -6 | -13 | · | · | · | ·
S=c1[nH]nc(Cc2ccc(Br)cc2)n1/N=C/c1ccc(Cl)cc1 | 4104 | 6 | -30 | · | · | · | ·
CCOc1ccc(C(=O)NCc2ccc3c(c2)OCO3)cc1 | 4241 | 2 | 7 | -6 | 7 | 2 | -4.0
CC(=O)N/C(=C\c1ccccc1)C(=O)OCC(=O)N(CC(C)C)c1c(N)n(Cc2ccccc2)c(=O)[nH]c1=O | 4584 | -3 | -27 | -6 | -1 | -4 | 2.3
O=C1NC(=O)C(=Cc2cccc(OCCOc3ccccc3)c2)C(=O)N1 | 4539 | 1 | -30 | 8 | 6 | 10 | -0.9
COc1ccc(NC(=O)C2CCCCN2N)cc1OC (centres undefined) | 3457 | 3 | -21 | · | · | 9 | -0.7
COCCNC(=O)CCc1nnc2ccc(N3CCC(C)CC3)nn12 | 3857 | -8 | -7 | 4 | -4 | 2 | 2.1
Cc1ccccc1Nc1ncnc2[nH]ncc12 | 3849 | · | -35 | 7 | 7 | 1 | 2.1
Cc1nc(-c2cccc(NC(=O)c3ccc(-n4cccn4)cc3)c2)cs1 | 5364 | · | -26 | 2 | 0 | 1 | 0.0
CSCCCN1CC[C@@H](N2CCN(c3ccccc3F)CC2)[C@H](O)C1 | 3826 | -5 | -24 | 7 | 8 | 10 | 1.1
